Screens: PubChem, Broad Institute
HIV Env fusion – HIV envelope-mediated fusion inhibition | HeLa-JRFL Env/CEM21 cell fusion, luciferase | inhibition, % at 12.3 µM | 360,000 tested, 1.1% active | AID 651610;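 active = mean replicate inhibition score of at least 50 and every replicate individually at or above 50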;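 also: 0% = plate neutral controls and 100% = maraviroc near 300 nM; one replicate is shown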
Yeast UUG start – alters start codon recognition fidelity in yeast; activity score, % at 18.7 µM; S. cerevisiae UUG-firefly luciferase reporter, luminescence/redox ratio; AID 602363; 350,000 tested, 0.13% active;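 active = replicate mean at a twofold rise or more, about +100% in these data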;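 also: firefly luciferase made from a UUG start codon reports start codon fidelity; reporter light over untreated wells divided by growth signal over untreated wells; some hits fall short of that in this replicate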
Starred values were filed as active, the others as inactive; [ ] = remark or other dose. Not all compounds are listed; rates above refer to the full screens.

Structure,HIV Env fusion,Yeast UUG start
COc1ccc(CN(C)C[C@H]2OCCCC[C@H](C)Oc3ccc(NC(=O)Nc4c(C)noc4C)cc3C(=O)N([C@@H](C)CO)C[C@H]2C)cc1,-21[16.7 µM],18
C[C@@H]1CN([C@@H](C)CO)S(=O)(=O)c2ccc(C#Cc3ccccc3F)cc2O[C@@H]1CN(C)C(=O)Cc1ccccc1,20[16.7 µM],-12
O=C(C[C@@H]1C[C@@H]2c3cc(NC(=O)CC4CC4)ccc3O[C@@H]2[C@@H](CO)O1)NCc1ccccc1,5[16.7 µM],-11
C[C@H]1CN([C@@H](C)CO)C(=O)c2cc(Br)cnc2O[C@H]1CN(C)Cc1cccc(F)c1,-1[16.7 µM],-4
COc1cccc(NC(=O)N(C)C[C@@H]2Oc3cc(C#Cc4ccc(F)cc4)ccc3S(=O)(=O)N([C@H](C)CO)C[C@@H]2C)c1,0[16.7 µM],-5
C[C@@H]1CN([C@@H](C)CO)C(=O)c2cc(NC(=O)C3CCCCC3)ccc2O[C@@H]1CN(C)C(=O)Nc1ccc(C(F)(F)F)cc1,-19[16.7 µM],6
C[C@@H]1CCCCO[C@@H](CN(C)S(=O)(=O)c2ccc(Cl)cc2)[C@H](C)CN([C@@H](C)CO)C(=O)c2cc(NC(=O)CCC(F)(F)F)ccc2O1,-1[16.7 µM],4
CCCC#Cc1ccc2c(c1)O[C@@H](CN(C)Cc1ccc3c(c1)OCO3)[C@@H](C)CN([C@H](C)CO)S2(=O)=O,12[16.7 µM],-1
CN(C)C(=O)C[C@H]1CC[C@@H](NC(=O)c2ccc(F)cc2)[C@H](CO)O1,-16[16.7 µM],-15
O=C(C[C@H]1C[C@@H]2c3cc(NC(=O)C4CCOCC4)ccc3O[C@@H]2[C@@H](CO)O1)NC1CCCCC1,-45[16.7 µM],11
CNC(=O)C[C@@H]1CC[C@H]2[C@@H](COc3ccc(NC(=O)Nc4ccc(C)cc4)cc3C(=O)N2C)O1,-7[16.7 µM],-11
C[C@@H]1CN([C@H](C)CO)C(=O)c2cc(C#C[C@@H](C)O)cnc2O[C@H]1CN(C)Cc1cccc(C(=O)O)c1,-3[16.7 µM],4
C[C@H](CO)N1C[C@H](C)[C@H](CN(C)C)Oc2cc(-c3ccc(C(=O)N(C)C)cc3)ccc2S1(=O)=O,23[16.7 µM],-7
Cc1noc(C)c1S(=O)(=O)Nc1cccc2c1O[C@H](CN(C)C(=O)NC1CCCCC1)[C@H](C)CN([C@H](C)CO)C2=O,-23[16.7 µM],9
CCC(=O)N(C)C[C@@H]1Oc2cc(-c3ccncc3)ccc2S(=O)(=O)N([C@@H](C)CO)C[C@H]1C,-3[16.7 µM],-1
Cc1noc(C)c1S(=O)(=O)Nc1ccc2c(c1)C(=O)N([C@@H](C)CO)C[C@@H](C)[C@H](CN(C)Cc1ccncc1)OCCCC[C@@H](C)O2,-2[16.7 µM],-6
O=C(C[C@@H]1C=C[C@@H](NC(=O)Nc2ccc(C(F)(F)F)cc2)[C@H](CO)O1)NCc1cc(F)cc(F)c1,2[16.7 µM],8
Cc1ccccc1S(=O)(=O)N1[C@H](CO)[C@@H](c2ccc(C#CC3CCCCC3)cc2)[C@@H]1C#N,35[16.7 µM],-19
C[C@H]1CN([C@@H](C)CO)C(=O)c2cccc(NC(=O)Nc3ccc(C(F)(F)F)cc3)c2O[C@@H]1CN(C)C(=O)NC1CCCCC1,-21[16.7 µM],7
CO[C@H]1CN(C)C(=O)c2ccc(NC(=O)C3CC3)cc2OC[C@@H](C)N(C(C)=O)C[C@H]1C,11[16.7 µM],-2
Cc1nn(C)cc1NC(=O)C[C@H]1CC[C@@H]2[C@@H](COc3ccc(NC(=O)C4CCC4)cc3C(=O)N2C)O1,60*[16.7 µM],-2
CCCC(=O)Nc1ccc2c(c1)C(=O)N(C)[C@H]1CC[C@@H](CC(=O)NCC(F)(F)F)O[C@H]1CO2,-18[16.7 µM],-2
COc1ccc(NC(=O)N(C)C[C@H]2OCCCC[C@H](C)Oc3ccc(NC(=O)Cc4ccccc4)cc3C(=O)N([C@@H](C)CO)C[C@@H]2C)cc1,-52[16.7 µM],-1
O=C(C[C@@H]1CC[C@H](NS(=O)(=O)c2cccc(F)c2)[C@@H](CO)O1)N1CCCCC1,10[16.7 µM],-11
Cc1ccc(S(=O)(=O)N(C)C[C@@H]2OCCCC[C@H](C)Oc3ccc(NS(=O)(=O)c4ccc(Cl)cc4)cc3C(=O)N([C@H](C)CO)C[C@H]2C)cc1,31[16.7 µM],12
C[C@@H]1CN([C@@H](C)CO)C(=O)c2cc(NC(=O)CCCN(C)C)ccc2O[C@@H](C)CCCCO[C@H]1CN(C)Cc1ccncc1,-8[16.7 µM],-9
CC(=O)N(C)C[C@@H]1Oc2ncc(-c3cccnc3)cc2C(=O)N([C@@H](C)CO)C[C@@H]1C,1[16.7 µM],-7
COCC(=O)N(C)C[C@@H]1Oc2cc(C#CC3CC3)ccc2S(=O)(=O)N([C@H](C)CO)C[C@H]1C,-3[16.7 µM],12
C[C@H](CO)N1C[C@H](C)[C@H](CN(C)Cc2ccc(C(F)(F)F)cc2)Oc2c(NS(=O)(=O)c3cccs3)cccc2C1=O,-4[16.7 µM],10
O=C(C[C@H]1C=C[C@@H](NC(=O)C2CCC2)[C@H](CO)O1)NCC1CC1,-18[16.7 µM],-5

Reprinted from above, 2 compounds:
Structure,HIV Env fusion,Yeast UUG start
C[C@H](CO)N1C[C@H](C)[C@H](CN(C)Cc2ccc(C(F)(F)F)cc2)Oc2c(NS(=O)(=O)c3cccs3)cccc2C1=O,-4[16.7 µM],10
O=C(C[C@H]1C=C[C@@H](NC(=O)C2CCC2)[C@H](CO)O1)NCC1CC1,-18[16.7 µM],-5

Other compounds
Structure,HIV Env fusion,Yeast UUG start
C[C@H](CO)N1C[C@H](C)[C@H](CN(C)C(=O)Nc2ccc(C(F)(F)F)cc2)Oc2c(NS(=O)(=O)c3ccccc3)cccc2C1=O,-23[16.7 µM],-17
O=C(C[C@@H]1C[C@@H]2c3cc(NC(=O)C4CCC4)ccc3O[C@@H]2[C@H](CO)O1)NCc1cccnc1,16[16.7 µM],-11
CNC[C@H]1Oc2c(NC(=O)c3ccc(-c4nccs4)cc3)cccc2C(=O)N([C@H](C)CO)C[C@H]1C,-12[16.7 µM],8
C[C@@H]1CCCCO[C@H](CN(C)S(=O)(=O)c2ccc(F)cc2)[C@H](C)CN([C@@H](C)CO)C(=O)c2cc(NC(=O)Nc3ccc(C(F)(F)F)cc3)ccc2O1,37[16.7 µM],-16
COc1cccc(-c2cnc3c(c2)C(=O)N([C@H](C)CO)C[C@@H](C)[C@@H](CN(C)Cc2ccc(F)cc2)O3)c1,12[16.7 µM],4
O=C(C1=C[C@H](c2csc3ccccc23)C[C@H](OCCCCO)O1)N1CCCCCCC1,11[16.7 µM],21
O=C(CN1CCOCC1)N[C@@H]1CC[C@@H](CCn2cc(C3CC3)nn2)O[C@H]1CO,9[16.7 µM],-5
C[C@H]1CCCCO[C@@H](CN(C)Cc2ccc3c(c2)OCO3)[C@@H](C)CN([C@@H](C)CO)C(=O)c2cc(NC(=O)Cc3ccccc3)ccc2O1,-23[16.7 µM],42
CC(C)NC(=O)N[C@H]1CC[C@@H](CC(=O)O)O[C@@H]1CO,-3[16.7 µM],-10
O=C(Nc1cc(F)ccc1F)N[C@@H]1CC[C@@H](CCn2cc(C3CCCCC3)nn2)O[C@@H]1CO,-3[16.7 µM],22
C[C@H]1CN([C@@H](C)CO)C(=O)c2cc(NC(=O)Nc3cccc4ccccc34)ccc2O[C@H]1CN(C)C(=O)Nc1ccc2c(c1)OCO2,-1[16.7 µM],6
C[C@@H]1CN([C@@H](C)CO)C(=O)Cc2cc(NC(=O)C3CC3)ccc2O[C@H]1CN(C)S(=O)(=O)c1ccc(F)cc1,-62[16.7 µM],8
C[C@@H]1CN([C@H](C)CO)C(=O)c2cc(-c3cccc(F)c3)cnc2O[C@@H]1CN(C)Cc1cccnc1,-7[16.7 µM],-9
C[C@H](O)C#Cc1ccc2c(c1)O[C@@H](CN(C)CC1CCOCC1)[C@@H](C)CN([C@H](C)CO)S2(=O)=O,35[16.7 µM],-7
CN1C(=O)c2cc(NC(=O)Nc3cccc(Cl)c3)ccc2OC[C@@H]2O[C@H](CC(=O)O)CC[C@H]21,-8[16.7 µM],17
C[C@@H]1CN([C@@H](C)CO)C(=O)Cc2cc(NC(=O)Cn3cnnn3)ccc2O[C@H]1CN(C)S(=O)(=O)c1ccccc1,2[16.7 µM],-12
C[C@H]1CN([C@@H](C)CO)C(=O)Cc2cc(NS(=O)(=O)c3ccc(F)cc3)ccc2O[C@@H]1CN(C)C(=O)Nc1cccc2ccccc12,12[16.7 µM],-1
C[C@@H]1CN([C@@H](C)CO)C(=O)c2cc(C#Cc3ccccc3F)cnc2O[C@@H]1CN(C)S(=O)(=O)c1ccccc1,26[16.7 µM],3
CO[C@@H]1CN(C)C(=O)c2cc(NS(=O)(=O)c3ccccc3F)ccc2OC[C@H](C)NC[C@H]1C,-17[16.7 µM],-2
O=S(=O)(N[C@@H]1CC[C@H](CCn2cc(-c3cccc(F)c3)nn2)O[C@@H]1CO)c1ccccc1,21[16.7 µM],-13
C[C@H]1CCCCO[C@@H](CN(C)Cc2ccncc2)[C@@H](C)CN([C@@H](C)CO)C(=O)c2cc(NS(=O)(=O)c3ccccc3)ccc2O1,-11[16.7 µM],-2
C[C@@H]1CN([C@H](C)CO)S(=O)(=O)c2ccc(-c3cccc(C(=O)N(C)C)c3)cc2O[C@H]1CN(C)C,-15[16.7 µM],-13
C[C@@H]1CN([C@@H](C)CO)C(=O)c2cc(C#Cc3ccncc3)cnc2O[C@H]1CN(C)CC1CCOCC1,-10[16.7 µM],-9
C[C@@H]1CCCCO[C@@H](CN(C)C(=O)Cc2ccccc2)[C@@H](C)CN([C@H](C)CO)C(=O)c2cc(NC(=O)c3ccccc3)ccc2O1,-16[16.7 µM],-6
CCNC(=O)C[C@@H]1CC[C@@H]2[C@@H](COc3ccc(NC(=O)c4cccc(OC)c4)cc3C(=O)N2C)O1,-4[16.7 µM],14
C[C@@H]1CN([C@@H](C)CO)C(=O)c2cccc(NC(=O)Nc3ccc(F)cc3)c2O[C@H]1CN(C)CC1CC1,-33[16.7 µM],-7
COc1ccc(CN(C)C[C@@H]2OCCCC[C@@H](C)Oc3ccc(NS(=O)(=O)c4ccccc4)cc3C(=O)N([C@@H](C)CO)C[C@H]2C)cc1,4[16.7 µM],26
C[C@@H]1CN([C@H](C)CO)C(=O)c2cccc(NC(=O)C3CCCCC3)c2O[C@H]1CN(C)CC1CCCCC1,-2[16.7 µM],4
COc1cccc(S(=O)(=O)N[C@H]2C=C[C@@H](CC(=O)NC3Cc4ccccc4C3)O[C@H]2CO)c1,8[16.7 µM],7
C/C=C/c1cnc2c(c1)C(=O)N([C@@H](C)CO)C[C@@H](C)[C@H](CN(C)S(=O)(=O)c1ccc(C)cc1)O2,5[16.7 µM],6

Structure,HIV Env fusion,Yeast UUG start
C[C@@H]1CN([C@@H](C)CO)C(=O)c2cc(NS(=O)(=O)c3cccs3)ccc2O[C@@H](C)CCCCO[C@@H]1CN(C)C(=O)NC1CCCCC1,0[16.7 µM],14
C[C@H](CO)N1C[C@H](C)[C@H](CN(C)Cc2ccccn2)Oc2cc(-c3ccncc3)ccc2S1(=O)=O,3[16.7 µM],-8
CN(C)C(=O)C[C@@H]1C[C@@H]2c3cc(NC(=O)C4CCC4)ccc3O[C@@H]2[C@H](CO)O1,1[16.7 µM],-8
O=C(N[C@@H]1CC[C@H](CCn2cc(-c3ccccn3)nn2)O[C@H]1CO)c1ccncc1,17[16.7 µM],-13
Cc1noc(C)c1NC(=O)N(C)C[C@H]1OCCCC[C@@H](C)Oc2ccc(NS(=O)(=O)c3ccccc3)cc2C(=O)N([C@@H](C)CO)C[C@@H]1C,5[16.7 µM],9
C[C@H](CO)N1C[C@H](C)[C@H](CN(C)S(=O)(=O)c2cccs2)OCCCC[C@H](C)Oc2ccc(NC(=O)c3ccccc3)cc2C1=O,-13[16.7 µM],4
C[C@@H]1CN([C@@H](C)CO)C(=O)Cc2cc(NC(=O)Nc3ccc4c(c3)OCO4)ccc2O[C@@H]1CN(C)Cc1ccc(Cl)c(Cl)c1,-15[16.7 µM],-26
COCC(=O)Nc1ccc2c(c1)C(=O)N(C)[C@H]1CC[C@H](CC(=O)NCc3cccc(F)c3)O[C@H]1CO2,-22[16.7 µM],-6
N#C[C@@H]1[C@@H](c2ccc(-c3cccc(F)c3)cc2)[C@H](CO)N1C(=O)c1cccnc1,-20[16.7 µM],-12
Cc1noc(C)c1NC(=O)N(C)C[C@H]1Oc2ccc(NC(=O)Cc3cn(C)c4ccccc34)cc2CC(=O)N([C@@H](C)CO)C[C@H]1C,-17[16.7 µM],-1
CN1C(=O)c2cc(NC(=O)C3CCCC3)ccc2OC[C@H]2O[C@H](CC(=O)Nc3ccccc3)CC[C@H]21,-8[16.7 µM],21

Quoted from the listing.
`C[C@H](CO)N1C[C@H](C)[C@H](CN(C)S(=O)(=O)c2cccs2)OCCCC[C@H](C)Oc2ccc(NC(=O)c3ccccc3)cc2C1=O` in HIV Env fusion = -13[16.7 µM]
`COCC(=O)Nc1ccc2c(c1)C(=O)N(C)[C@H]1CC[C@H](CC(=O)NCc3cccc(F)c3)O[C@H]1CO2` in Yeast UUG start = -6
`C[C@@H]1CN([C@@H](C)CO)C(=O)c2cc(NS(=O)(=O)c3cccs3)ccc2O[C@@H](C)CCCCO[C@@H]1CN(C)C(=O)NC1CCCCC1` in HIV Env fusion = 0[16.7 µM]
`N#C[C@@H]1[C@@H](c2ccc(-c3cccc(F)c3)cc2)[C@H](CO)N1C(=O)c1cccnc1` in Yeast UUG start = -12
`Cc1noc(C)c1NC(=O)N(C)C[C@H]1OCCCC[C@@H](C)Oc2ccc(NS(=O)(=O)c3ccccc3)cc2C(=O)N([C@@H](C)CO)C[C@@H]1C` in Yeast UUG start = 9
